YjeE inh – inhibitors of E. coli YjeE (TsaE). P0AF67. purified YjeE, fluorescence polarisation of a bound ADP probe. Potency, µM. 71,000 tested, 0.05% active. AID 605; active = well fitted falling curve; inconclusive = weaker or top-dose-only fall, or a rising curve; inactive = flat or poorly fitted curve;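 also: top concentration of the series not given in the record; excess ADP was the control for the full effect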
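Purified YjeE (10 uM) with BODIPY Texas Red-labeled ADP probe (2 uM); compounds pin-transferred, 15 min at room temperature. Binding inhibition read as decreased fluorescence polarization; ADP titration as control.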
Bst PK mod – pyruvate kinase (B. stearothermophilus) modulation. partly purified Bacillus stearothermophilus pyruvate kinase, luminescence ATP production; ribose 5-phosphate activator present at AC10. Potency, µM. 51,000 tested, 1.2% active; in the data active means potency below about 11 µM; inconclusive means mostly about 12 µM to 25 µM; inactive means weaker than that;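 the screen sought inhibitors and activators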;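 also: potency is read from the fitted curve at half-maximal effect; scaled between full activation by ribose 5 phosphate and full inhibition by luteolin; about four in five hits inhibit and the cells do not say which; series up to 57 µM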
* = called active by the depositor; i = inactive; ? = inconclusive; . = not tested or not shown. The list is partial (hit frequency here may not be typical).

Structure,YjeE inh,Bst PK mod
O=C(COc1ccccc1)N1CCc2ccccc2C1,i,>57
Clc1ccccc1-c1cncnc1NCCN1CCOCC1,i,.
O=C(O)CCn1c(=O)[nH]c2ccccc2c1=O,i,.
COc1ccc(CN(C(=O)CN2C(=O)C(C)Oc3ccccc32)C2CCCC2)c(OC)c1 (stereo not drawn),i,>57
CCOc1nc(-c2ccccc2)ccc1-c1noc(-c2ccc(OC)c(OC)c2)n1,i,>57
CCOC(=O)Cc1ccc(NS(=O)(=O)c2ccc(SC)cc2)cc1,i,.
Cc1c(N(C)C(=O)c2ccccc2F)c(=O)n(-c2ccccc2)n1C,i,>57
O=C(CCCOc1ccccc1)Nc1nncs1,i,>57
Cc1ccc(C)c(N(CC(=O)NCCSCc2ccco2)S(C)(=O)=O)c1,i,>57
CS(=O)(=O)N(CC(=O)NCC1CCCO1)Cc1ccc(Cl)cc1 (stereo not drawn),i,>57
COC(=O)c1ccccc1NC(=O)CN(C)S(=O)(=O)c1cc(C)ccc1OC,i,>57
Cc1noc(C)c1COC(=O)c1ccc(S(=O)(=O)NCc2ccco2)cc1,i,>57
CCCCn1c(SCC(=O)N(CC)C2CCS(=O)(=O)C2)nnc1C(CC)N(C)C (stereo not drawn),i,>57
Cc1c(N(C)C(=O)C2CCCN2S(=O)(=O)c2ccccc2)c(=O)n(-c2ccccc2)n1C (stereo not drawn),i,>57
O=C(O)CSc1nnc(-c2cc3ccccc3o2)n1-c1ccccc1,i,>57
Cc1cc(Nc2ccc(N=Nc3ccc(O)c4ncccc34)cc2)nc(C)n1,i,.
Cc1cc(=O)[nH]c(SCC(N)=O)c1C#N,i,>57
CC(=O)N1c2ccccc2N(Cc2ccc(C)cc2C)C(=O)C1(C)C,i,.
CC1(C)NC(=O)N(CCOCCSc2ccccc2)C1=O,i,>57
CCOC(=O)Nc1ccc2c(c1)N(C(=O)CN(CC)CC)c1ccccc1C=C2,i,>57
COc1ccc(CCNC(=O)CS(=O)Cc2nc(-c3cccs3)oc2C)cc1OC (stereo not drawn),i,>57
CCOc1ccc(-n2c(SCC)nc3c(c2=O)SCC3)cc1,i,>57
Oc1ccc2ccccc2c1Cc1c(O)ccc2ccccc12,i,.
N=c1n(Cc2ccc(Cl)cc2)c2ccccc2n1CC(O)c1ccco1 (stereo not drawn),i,>57
CSc1ccccc1C(=O)NCCSC(C)(C)C,i,>57
CC1(C)CC(=O)c2sc(N)nc2C1,i,>57
CCCNC(=O)Nc1cc(OCC)c(N2CCOCC2)cc1OCC,i,.
O=C(Nc1cccc2ncccc12)c1ccc2c(c1)OCCO2,i,>57
COc1ccccc1C(=O)N1CCNC(=O)C1CC(=O)Nc1ccc(Cl)cc1 (stereo not drawn),i,>57
O=C(Nc1ccc(O)cc1C(=O)O)c1ccc2c(c1)C(=O)N(Cc1ccco1)C2=O,i,.
COc1ccc(CNC(=O)C2CSCCS2)cc1 (stereo not drawn),i,>57
O=S(=O)(NCCC1=CCCCC1)c1cccc(S(=O)(=O)N2CCOCC2)c1,i,>57
Nc1nc(CN2CCN(Cc3ccc4c(c3)OCO4)CC2)nc(Nc2ccccc2)n1,i,>57
N#CN=C1CCCCCN1CC(N)=O,i,.
C=CCn1c(SCC(=O)N2CCN(C(=O)c3ccco3)CC2)nc2sc(CC)cc2c1=O,i,>57
CC(C)CNC(=O)c1cc(-c2ccco2)on1,i,>11
Cc1cc(C)cc(NS(=O)(=O)c2ccc3[nH]c(=O)[nH]c3c2)c1,i,i
CC1=C(C(=O)OC(C)C)C(c2cccnc2)C2=C(CCCC2=O)N1 (stereo not drawn),i,.
COc1ccc(-n2c(=O)c(-c3cccs3)nc3cnc(Oc4ccccc4)nc32)cc1,i,.
COc1ccc(CC(=O)OCc2nnc(C3COc4ccccc4O3)o2)cc1OC (stereo not drawn),i,>57
Cc1cccc(CNc2ncncc2-c2cccc(C#N)c2)c1,i,.
CCCc1ccc(Oc2c(-c3ccc(O)c(C)c3O)n[nH]c2C)cc1,i,.
COc1ccc(-n2c(Cc3cccn3C)nnc2SCC(=O)Nc2nc(C)cs2)cc1,i,.
COc1ccc(CC(=O)N2CC(=O)N(CCc3ccccc3)C(=O)C2)cc1,i,>57
CCOC(=O)c1[nH]c(C)c(C(=O)Nc2cc(OC)ccc2OC)c1C,i,>57
COCC(=O)N1CCC2(CCCN(Cc3ccccc3OC)C2)CC1,i,.
CCn1cc(C(=O)NCc2ccc3c(c2)OCO3)c(=O)c2cc(S(=O)(=O)N3CCOCC3)ccc21,i,>57
C[N@@+]1(Cc2ccc(Cl)c(Cl)c2)CCC[C@@H]1c1ccc[n+](Cc2ccc(Cl)c(Cl)c2)c1,i,.
COC(=O)Cn1cc(C(=O)OC)cc(Br)c1=O,.,>26
CCOc1cc(C2NC(=O)N(C)C(C)=C2C(=O)OC)cc(Br)c1O (stereo not drawn),i,>57
O=P(O)(c1ccccc1)c1ccccc1O,.,>26
O=C1c2[nH]nc(-c3ccccc3O)c2C(c2cccc(Cl)c2)N1CC1CCCO1 (stereo not drawn),i,>57
COc1ccccc1N1CCN(Cc2cc(Br)c(O)c3ncccc23)CC1,i,.
CCc1nnc(NC(=O)CCC(=O)NCC2CCCO2)s1 (stereo not drawn),i,>57
O=C(NCc1ccccc1F)c1cccs1,i,>57
O=C(O)CC(SCc1ccc(C(=O)O)o1)C(=O)O (stereo not drawn),.,>26
COc1ccc(C(=O)n2c(-c3ccco3)nc3ccccc32)cc1,i,>57
COc1cccc(NC(=O)CSc2ccccn2)c1,i,>57
CN(C)C(=O)Cn1c(SCC(=O)NC2CCCCC2)nc2ccccc21,i,>57
COC(=O)NCC(c1cccnc1)N1CCN(c2ccccc2F)CC1 (stereo not drawn),i,.

Carrying on:
Structure,YjeE inh,Bst PK mod
Cc1nc2[nH]c(=O)c3c(n2n1)NC1=C(C(=O)CC(C)(C)C1)C3c1ccccc1 (stereo not drawn),i,>57
Cc1nc(CNS(=O)(=O)c2cc(F)ccc2F)cs1,i,>57
CCOC(=O)CC(=O)CSc1nnc2c(n1)[nH]c1ccccc12,i,.
Cc1ccc(CC(=O)Nc2nncs2)cc1,i,>57
O=C(CSCc1cnn(-c2ccccc2)c1-n1cccc1)NCC1CCCO1 (stereo not drawn),i,>57
O=C(CSc1nnc(CNC(=O)c2c(F)cccc2Cl)o1)NCc1ccc2c(c1)OCO2,i,>57
CC1CCN(CC[C@H]2CCCN2S(=O)(=O)c2cccc(O)c2)CC1,i,.
COCCn1c(C)cc(C(=O)CSc2nnc(C)s2)c1C,i,?
O=C(NCCCN1CCCCC1)c1ccc2c(c1)NC(=O)C(N1CCCCC1)S2 (stereo not drawn),i,>57
CCn1c(SCC(=O)NCc2ccco2)nnc1-c1ccc(N)cc1,.,>26
CCc1ccc(NC(=O)CSc2nc3cc(C(=O)OC)ccc3c(=O)n2Cc2ccco2)cc1,i,>57
COc1ccc2[nH]cc(C(=O)CN3CCN(C/C=C/c4ccccc4)CC3)c2c1,i,>57

Quoted at random: 5 entries already listed, in no set order.
Structure,YjeE inh,Bst PK mod
Cc1cccc(CNc2ncncc2-c2cccc(C#N)c2)c1,i,.
Cc1cc(Nc2ccc(N=Nc3ccc(O)c4ncccc34)cc2)nc(C)n1,i,.
O=C(CSCc1cnn(-c2ccccc2)c1-n1cccc1)NCC1CCCO1 (stereo not drawn),i,>57
CCOC(=O)CC(=O)CSc1nnc2c(n1)[nH]c1ccccc12,i,.
O=C(O)CCn1c(=O)[nH]c2ccccc2c1=O,i,.

(listing goes on)
Structure,YjeE inh,Bst PK mod
O=c1[nH]cnc2c1C1(CCCC1)Cc1ccccc1-2,i,.
COC1(OC)N=C(N)C2(C#N)C(c3ccc(C)cc3)C12C#N (stereo not drawn),i,>57
CCN1CCN(C(c2cc(OC)c(OC)c(OC)c2)c2nnnn2C(C)C)CC1 (stereo not drawn),i,>57
O=c1c(-c2ccc(F)c(F)c2)nc2cncnc2n1Cc1ccccc1,i,.
O=C(CN1CCCC1=O)NC1(C(F)(F)F)NC(=O)N(Cc2ccccc2)C1=O (stereo not drawn),i,>57
Cc1ccc(-n2nnnc2SCC(=O)N2CCc3ccccc3C2)c(C)c1,i,.
Nc1nc(SCC(=O)C23CC4CC(CC(C4)C2)C3)n[nH]1,i,>57
CCn1c2ccccc2c2cc(NC(=O)c3ccco3)ccc21,i,.
O=C(Cn1cnc2ccccc21)Nc1cc(C(F)(F)F)ccc1N1CCOCC1,i,>57
CC(=O)C(C(C)=O)C(NC(=O)c1cccnc1)(C(F)(F)F)C(F)(F)F,i,>57
O=C(Cc1ccccc1)Nc1ccc(NC(=O)C2CC2)nc1,i,>57
Cc1nn(C)c(C)c1S(=O)(=O)N(CC(=O)NCCN1CCOCC1)c1ccc(C(C)C)cc1,i,.
O=C(CCCCn1c(=O)c2ccccc2n(CC(=O)Nc2ccc(F)cc2)c1=O)NCc1ccco1,i,>57
O=C(Nc1ccc2c(c1)OCO2)C1Cc2ccccc2CN1S(=O)(=O)c1cccs1 (stereo not drawn),i,>57
C=CCn1c(=O)c2ccccc2n2c(SCc3nc(N)nc(Nc4ccccc4C)n3)nnc12,i,>57
CNC(=O)CN(C1CCCCC1)S(=O)(=O)c1ccc(OC)c(Cl)c1,i,>57
c1ccc2c(c1)Cc1cc(CN3CCOCC3)ccc1-2,i,.
CCOC(=O)N1CCN(S(=O)(=O)c2c(C)[nH]c(=O)[nH]c2=O)CC1,i,>57
CCn1c(=O)cc(OCC(=O)Nc2ccccc2C#N)c2ccccc21,i,.
Cc1ccc(S(=O)(=O)N2CCCN(S(=O)(=O)c3ccc(C)cc3)CC2)cc1,i,.
CCOC(=O)N1CCC(Nc2c(-c3ccc(C)cc3)c(=O)c2=O)CC1,i,>57
O=C(NCc1ccco1)c1ccc(COCC(F)(F)F)cc1,i,>57
CC(O)CNc1nc2c(c(=O)n(C)c(=O)n2C)n1Cc1cccc(Br)c1 (stereo not drawn),i,>57
COc1cc(C2C(C#N)=C(C)NC3=C2C(=O)c2ccccc23)cc(OC)c1OC (stereo not drawn),i,>57
Cc1ccc(-c2ccc(/C=N/n3cnnc3)o2)cc1Cl,i,.
CCCCNc1c(C(=O)OCC)c(=O)[nH]c2ccccc12,i,>57
CCOc1cc2[nH]c(=O)n(CC3CCC(C(=O)NC(C)CC)CC3)c(=O)c2cc1OCC (stereo not drawn),i,>57
COc1cccc(C(=O)CSc2nnc(-c3ccco3)n2CC2CCCO2)c1 (stereo not drawn),i,>57
COc1ccc2oc(=O)c(C(=O)NCC3CCCO3)cc2c1 (stereo not drawn),i,>57
CCOC(=O)N1CCC(NC(=O)C2CCCN2C(=O)OCc2ccccc2)CC1 (stereo not drawn),i,>57
CC1=C(C(=O)OCC2CCCO2)C(c2ccncc2)C2=C(CCCC2=O)N1 (stereo not drawn),i,.
O=C(CSc1nc2ccccc2[nH]1)N1CCN(c2ccccc2)CC1,i,.
COc1ccc(-c2nnn(CC(=O)c3ccccc3)n2)cc1OC,i,>57
CSc1ccccc1C(=O)Nc1cccc(C(C)O)c1 (stereo not drawn),i,>57
COc1ccc(OC)c(NC(=O)CCN2CCC(C)CC2)c1,i,>57
CCCCC(CC)CNC(=O)c1ccc2c(c1)OCO2 (stereo not drawn),i,.
COC(=O)[C@@]1(Cc2ccc(F)cc2)[C@H]2c3cc(C(=O)N(C)C)n(Cc4ccc(C)c(F)c4F)c3C[C@H]2CN1C(=O)c1ccccc1,i,.
Nc1nnnn1N=C1CCCCC1,.,>11
Cn1nc(C(=O)NCc2ccccn2)c2ccccc2c1=O,i,>57
COc1ccccc1N(CN1CCCC1=O)C(=O)c1c(F)cccc1F,i,>57
CS(=O)(=O)N(CC(=O)NCCSc1ccc(Cl)cc1)c1ccc2c(c1)OCO2,i,>57
CC(=O)/C=C(/C)NC(Cc1c[nH]c2ccccc12)C(=O)O (stereo not drawn),i,>57
Cn1c(=O)c2c(nc(CN3CCN(c4cccc(Cl)c4)CC3)n2CCc2ccccc2)n(C)c1=O,i,>57
COc1cccc(NC(=O)CSc2nnc(C)s2)c1,i,>57
Nc1nnc(SCc2ccc(F)cc2)s1,i,>57
C/C=C/Cn1c(SCc2ccc(C)cc2)nc2c1c(=O)[nH]c(=O)n2C,i,>57
CCCSc1nnc2n(C)c(=O)c3c4c(sc3n12)CCC4,.,4.7*
Cc1cc(C)c(C)c(S(=O)(=O)Nc2ccc(O)cc2)c1C,i,?

An excerpt from above in order of count of non-hydrogen atoms, smallest number first.
Structure,YjeE inh,Bst PK mod
Nc1nnnn1N=C1CCCCC1,.,>11
Nc1nnc(SCc2ccc(F)cc2)s1,i,>57
COc1cccc(NC(=O)CSc2nnc(C)s2)c1,i,>57
